Mtb MenB inh – Mtb MenB enzyme inhibition; MenB enzyme assay, absorbance read-out; some hits fall short of the stated cut; hit rate 0.43% among 100,000; inhibition, %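 (about 12 µg/mL by stock and volumes)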;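 active means mean of two replicates above 30%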;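 further: 0% = no compound and 100% = wells with inactive enzyme; the first replicate is given; strong numbers were not always called active; inactives centre near -10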
Target sequence (P9WNP5 whole entry, looked up): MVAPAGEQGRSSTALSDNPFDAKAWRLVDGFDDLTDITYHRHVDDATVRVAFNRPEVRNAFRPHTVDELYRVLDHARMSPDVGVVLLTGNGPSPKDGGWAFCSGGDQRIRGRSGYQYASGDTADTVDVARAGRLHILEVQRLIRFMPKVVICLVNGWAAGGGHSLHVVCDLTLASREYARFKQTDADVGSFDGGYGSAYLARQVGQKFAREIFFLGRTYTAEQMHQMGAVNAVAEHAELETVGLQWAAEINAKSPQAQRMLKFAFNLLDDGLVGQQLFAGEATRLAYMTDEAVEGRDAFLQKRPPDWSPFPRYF
Mtb MbtI inh – inhibitors of Mycobacterium tuberculosis siderophore enzyme MbtI. P9WFX0. purified MbtI enzyme, fluorescence intensity read-out. inhibition, %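 (about 17 µg/mL by stock and volumes)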. hit rate 0.89% among 100,000;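 active means above 50% in both replicates, above 80% if mildly self-fluorescent; inactive means the rest, strongly fluorescent compounds included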;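 further: 0% = mean of negative and 100% = mean of positive controls; one replicate is shown; some compounds called inactive have numbers as strong as hits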
PV pol inh – inhibitors of poliovirus RNA polymerase binding and polymerization | P03300 | poliovirus polymerase elongation, fluorescence polarization; hits give low values | % elongation, % (compound at 16.7 µg/mL) | hit rate 0.66% among 150,000 | AID 588519; in the data active means % elongation below about 90%; further: some results filed as inactive read as strong as hits
Target sequence (P03300 1749-2209 limits assumed): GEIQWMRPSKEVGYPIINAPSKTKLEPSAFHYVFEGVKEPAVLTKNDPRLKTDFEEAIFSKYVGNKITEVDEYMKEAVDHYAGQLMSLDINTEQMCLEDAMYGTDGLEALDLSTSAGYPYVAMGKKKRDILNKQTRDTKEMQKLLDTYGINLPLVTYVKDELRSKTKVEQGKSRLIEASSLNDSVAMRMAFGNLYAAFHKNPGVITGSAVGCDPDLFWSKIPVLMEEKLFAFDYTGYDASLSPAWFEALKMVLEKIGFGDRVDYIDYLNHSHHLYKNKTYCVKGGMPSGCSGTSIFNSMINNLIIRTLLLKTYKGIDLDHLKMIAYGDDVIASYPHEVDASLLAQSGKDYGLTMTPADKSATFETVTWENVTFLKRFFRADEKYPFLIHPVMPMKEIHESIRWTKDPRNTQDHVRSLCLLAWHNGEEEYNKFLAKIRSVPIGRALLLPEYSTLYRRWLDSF
PV pol inh intensity – second read-out of PV pol inh, no call of its own (marks repeat the call); % elongation; measured here: total intensity read-out; formula for this scale not given here;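 total fluorescence in place of polarization; lower means less elongation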
Active calls of the source: *; nt = no result given; & = joins results of further samples. Rows are unselected; overall some 1.7% were active at least once.

SMILES | Mtb MenB inh | Mtb MbtI inh | PV pol inh | PV pol inh intensity
N#CCCn1cc(/C=C/C(=O)N2CCN(c3ncc(C(F)(F)F)cc3Cl)CC2)c2ccccc21 | -18 | -4 | 100 | 105
C/C(CCc1ccccc1)=N/NC(=O)c1ccc(O)cc1 | -19 | 4 | 101 | 102
CCOC(=O)c1ccc(NC(=O)c2cc3cccnc3n(C)c2=O)cc1 | -32 | -5 | 107 | 110
CCC1(C)Cc2ccccc2-c2nc3n(c(=O)c21)CC(O)CS3 (configuration not stated) | -17 | -36 | 98 | 101
Cn1c(O)c(C=NCc2ccc3c(c2)OCO3)c(=O)[nH]c1=S | -42 | -15 | 99 | 104
CCC(Sc1nncn2c1cc1occc12)C(=O)Nc1ccc(OC)c(Cl)c1 (configuration not stated) | -10 | 14 | 105 | 106
COc1ccc(C2(C(=O)Nc3ccc(C)cc3)CCCC2)cc1OC | -22 | -3 | 102 | 107
CSc1nc(N)c2ccccc2n1 | 0 | 16 | 99 | 98
CCc1ccc(NS(=O)(=O)c2ccc3c(c2)SC(C)C(=O)N3)cc1 (configuration not stated) | -6 | 0 | 100 | 96
O=C(NN=C1CCCCC1)C1CC1c1ccccc1 (configuration not stated) | 29 | 4 | 101 | 102
N#C/C(=C/Nc1cccc(C(F)(F)F)c1)c1nc(-c2ccc3c(c2)OCO3)cs1 | -6 | -1 | 100 | 103
CC1(C)CC2CC(C)(CN2C(=O)CSc2ncnc3ccccc23)C1 (configuration not stated) | nt | -1 | 104 | 99
COC(=O)c1cccc(CSc2nnc(-c3ccccc3OC)n2N)c1 | -2 | 3 | 104 | 104
[C-]#[N+]c1cc(-c2ccncc2)c(C)[nH]c1=O | -9 | -97 | 102&101 | 104&103
CCOC(=O)c1cnc(N2CCCC2)nc1C1CCNCC1 | -46 | 15 | 100 | 104
C#CCn1c(O)c(N=NC(=O)c2cc(Cl)ccc2O)c2ccccc21 | -29 | -1 | 104 | 98
CCOC(=O)N1CCC(N2CCc3c([nH]c4ccccc34)C2)CC1 | -11 | -15 | 100 | 104
COC(=O)Nc1cc(NC(=O)OC)cc(C(F)(F)C(F)(F)C(F)(F)F)c1 | -8 | -5 | 98 | 98
Cc1cnc(NC(=O)COc2ccccc2Cl)s1 | -39 | 0 | 103 | 98
O=C(OC1CSC1)c1cccs1 | -7 | nt | 104 | 110
CS(=O)(=O)c1ccc(C(=O)NCc2ccccc2)cc1 | -10 | -13 | 105 | 106
Cc1ccc2c(c1)c1c(n2CC(O)CNCc2ccco2)C(=O)CCC1 (configuration not stated) | 2 | 15 | 101 | 102
CC1CCN(C(=O)COC(=O)Cc2ccc(Br)cc2)CC1 | -27 | -10 | 106 | 101
Cc1cc(C(F)(F)F)nc(SCc2ccc(C(=O)O)o2)n1 | -13 | 11 | 98 | 103
O=C(c1ccccc1F)N1CCC(Cc2ccccc2)CC1 | -8 | nt | 104 | 104
Fc1ccc(/C=C/c2cccc3ccccc23)cc1 | -6 | -1 | 113 | 114
CCOC(=O)/C=c1/nc2c([nH]c1=O)=NON2 | 6 | 3 | 98 | 101
COC(=O)CC1C(=O)NCCN1C(=O)NS(=O)(=O)c1ccc(C)cc1 (configuration not stated) | -13 | -2 | 100 | 97
CCOC(=O)c1ccc(NC(=O)C(CC)Sc2nc3ccccc3o2)cc1 (configuration not stated) | -20 | -36 | 101 | 102
COc1ccc(N2C(=O)c3ccccc3C2(O)c2ccccc2)cc1OC (configuration not stated) | -3 | -20 | 103 | 104
O=C1CC(c2csc(-c3ccccc3)n2)C2(CCCCC2)O1 (configuration not stated) | -14 | 3 | 100 | 96
CC1(C(N)=O)CCCC1 | nt | -12 | 107 | 109
O=C(c1cnn(-c2ccccc2)c1-n1cccc1)N1CCCCC1 | -1 | 3 | 100 | 100
COc1ccccc1C1=NOC(COC(=O)c2ccc3ccccc3n2)C1 (configuration not stated) | -11 | -18 | 104 | 106
NC(=O)COC(=O)c1cc2ccccc2cc1O | nt | -1 | 103 | 108
Cc1cc2c(c(SCC(=O)N(C)c3ccccc3)n1)C(=O)OC2 | -12 | nt | 103 | 109
c1ccc(Oc2ncnc3sc4c(c23)CCCC4)cc1 | -3 | -5 | 105 | 95
CN1C(=O)/C(=C2\SC(=S)N(CC3CCCO3)C2=O)c2ccccc21 (configuration not stated) | -10 | nt | 104 | 104
COc1cc(C(c2nnnn2C2CCCCC2)N2CCc3ccccc3C2)ccc1O (configuration not stated) | 17 | 17 | 102 | 102
CNS(=O)(=O)c1cccc(C(=O)OCC(=O)Nc2ncc(Cl)cc2Cl)c1 | 5 | -12 | 101 | 110
Cc1cccc2cc(CN(Cc3ccccc3)C(=O)c3ccco3)c(=O)[nH]c12 | -10 | -3 | 103 | 104
NC(=S)Nc1nc2ccccc2[nH]c1=O | -84 | 7 | 101 | 103
O=C(NCc1ccccc1)C1CCN(C(=O)NCc2ccccc2)CC1 | 7 | -12 | 102 | 102
CCc1ccc(C(=O)/C=C2\Sc3ccccc3NC2=O)cc1 | -52 | 4 | 104 | 99
O=C(NCc1nnc(SCC(=O)N2CCOCC2)o1)c1ccccc1 | 12 | 5 | 98 | 104
O=C(/C=C/c1ccco1)C1CC1 | 5 | nt | 100 | 137
Fc1ccc(Cn2ccnc2-c2ccc(C(F)(F)F)cc2)cc1 | -4 | 0 | 108 | 98
O=C1NC(=S)S/C1=C\c1c(NCCO)nc2ccccn2c1=O | -26 | 21 | 118 | 159
CC1CCC2(NC1)O[C@H]1C[C@H]3[C@@H]4CC=C5C[C@@H](O)CC[C@]5(C)[C@H]4CC[C@]3(C)[C@H]1[C@@H]2C (some centres not stated) | -1 | -14 | 101 | 103
CCc1nc2c([nH]1)c(=O)n(C)c(=O)n2C | -29 | -3 | 99 | 103
New compounds follow:
SMILES | Mtb MenB inh | Mtb MbtI inh | PV pol inh | PV pol inh intensity
CC(C)C(=O)OCC(=O)NN1C(=O)NC(C)(c2ccccc2)C1=O (configuration not stated) | -8 | -20 | 101 | 105
Cc1cc(C(=O)CSc2n[nH]c(=O)n2C2CC2)c(C)n1-c1ccccc1 | 0 | -7 | 105 | 113
COc1ccc(OC)c(N(CC(=O)N2CCN(c3ccc(F)cc3)CC2)S(=O)(=O)c2ccc(OC)c(OC)c2)c1 | -9 | -3 | 100 | 101
O=C(O)COc1ccccc1F | nt | -6 | 102 | 99
CCOC(=O)c1cc(-c2ccc(N3CCOCC3)cc2)nn1-c1ccccc1 | -22 | 101 | 104 | 109
CC1CCCCN1S(=O)(=O)c1ccc(CN2C(=O)c3cccnc3C2=O)s1 (configuration not stated) | -17 | 4 | 102 | 103
CC(C)(C)c1nccc(-c2nn(-c3ccc(F)cc3)ccc2=O)n1 | -9 | 10 | 106 | 107
O=c1oc2cc(Cl)c(O)c(Cl)c2s1 | -53 | 99* | 102 | 101
COc1ccc2c(c1)n([O-])c1c([n+]2=O)CCC1 | -8 | 29 | 100 | 95
Cc1ccc(-c2nnn(CC(=O)N3N=C4/C(=C/c5ccco5)CCCC4C3c3ccco3)n2)cc1 (configuration not stated) | -29 | 16 | nt | nt
O=C(CSc1ccccc1C(=O)NCC1CCCO1)Nc1ccc2c(c1)OCO2 (configuration not stated) | -33 | 0 | 116 | 112
CCn1c(CC(=O)Nc2ccccc2)nnc1SCc1nc2ccccc2c(=O)[nH]1 | 4 | -7 | 101 | 99
O=C(Cc1ccccc1)N/N=C/C=C/c1ccco1 | -17 | 29 | 95 | 111
CCc1ccccc1NC(=O)C1CC(=O)N(C2CCCCC2)C1 (configuration not stated) | -47 | 7 | 101 | 100
CCOC(=O)c1sc(N)cc1C | nt | 1 | 102 | 102
CCOC(Cn1c(SCc2c(F)cccc2Cl)nc2ccccc2c1=O)OCC | -16 | -6 | 101 | 96
O=C(CO/N=C/c1ccccc1OC(F)F)N1CCN(c2ccccc2)CC1 | 10 | 14 | 102 | 97
CNC(=O)c1c(C)nc(SCC(=O)NCc2ccc(OC)cc2)c(C#N)c1-c1ccco1 | 1 | 9 | 104 | 95
CC(C)N(CCC#N)S(=O)(=O)c1ccccc1 | 10 | -3 | 100 | 98
c1coc(-c2cn3ccc4ccccc4c3n2)c1 | -13 | 103 | 104 | 107
COc1ccc(NC(=S)NCCCN2CCN(C3CCCCC3)CC2)cc1 | 8 | 4 | 102 | 103
CC1CCc2nn(CC(=O)N3CCCC3)cc2C1 (configuration not stated) | 1 | -2 | 103 | 97
O=C1c2[nH]nc(-c3ccccc3O)c2C(c2ccccc2)N1CC1CCCO1 (configuration not stated) | 16 | -9 | 101 | 98
CN(CC1CCCO1)S(=O)(=O)c1ccc(C(=O)Nc2ccc3c(c2)C(=O)NC3=O)cc1 (configuration not stated) | -17 | 102 | 98 | 105
N#CCc1c(C#N)c(N)nc(NNC(=O)c2ccc(Br)cc2)c1C#N | -4 | 2 | 105 | 106
CN(c1ccc(C(=O)N2CCCCC2)cc1)S(C)(=O)=O | -50 | -9 | 104 | 102
NC(=O)C1CCCN1c1cnn(Cc2ccccc2)c(=O)c1Cl (configuration not stated) | 15 | 20 | 106 | 101
O=C(/C=C/c1ccc(O)c(O)c1)O[C@@H]1C[C@](O)(C(=O)O)C[C@@H](O)[C@H]1O | 0&-3 | 6&4 | 100&98 | 102&100
Brc1cccc(Oc2ncnc3sccc23)c1 | nt | -14 | 104 | 107
COC(=O)c1sccc1NC(=O)CC#N | -86 | 10 | 105 | 101
c1ccc(-c2[nH]ncc2CNCc2ccco2)cc1 | 8 | -11 | 103 | 105
CCCCC1CCC2(C)C3=C(CCC3)CCN2C1 (configuration not stated) | -5 | -5 | 102 | 102
CCC1SC2=NC(C)=C(C(=O)OC)C(c3ccccc3Br)N2C1=O (configuration not stated) | -3 | -5 | 103 | 107
O=C(CSCc1cc(=O)n2ccsc2n1)Nc1ccccc1 | 4 | 18 | 101 | 103
CC(=O)N=C1c2ccccc2CN1c1cc(Cl)cc(Cl)c1 | nt | -7 | 99 | 99
CCc1ccc(CNCCCSc2nnnn2-c2ccccc2)cc1 | -14 | -20 | 101 | 103
O=C(CNC(=O)c1ccc2c(c1)SC1=NS(=O)(=O)CCN12)Nc1cc(Cl)ccc1Cl | -5 | 4 | 101 | 107
Cc1oc(C(C)(C)C)c(CO)c1C(=O)O | -15 | nt | 103 | 109
O=C1CCCN1CCCNc1ccc(Cl)nn1 | -16 | 7 | 100 | 100
CC(NC(=O)Cc1c(F)cccc1Cl)C1CCCO1 (configuration not stated) | -12 | -13 | 101 | 103
O=C(c1cccc(N2C(=O)c3ccccc3C2=O)c1)N1CCOCC1 | -13 | -5 | 100 | 103
CN1C(=O)/C(=C/c2cn(CC(=O)N3CCCC3)c3ccccc23)c2ccccc21 | -25 | 9 | 104 | 109
COCCn1ccc2c(OCC(=O)c3ccccc3)cccc2c1=O | 3 | 31 | 101 | 107
O=C1CSC2=NC3=C(CCc4ccccc43)C(c3cccs3)N12 (configuration not stated) | 5 | 24 | 105 | 113
O=C(Nc1ccccc1C(F)(F)F)c1ccc(Cn2cnnn2)cc1 | -5 | nt | 101 | 104
CC(C)c1ccc(N2C=Nc3ccc(C(C)C)cc3C2)cc1 | -8 | -1 | 103 | 110
Cc1cc(C)cc(-n2c(SCC(=O)NCc3ccc(F)cc3)nc3c(c2=O)SCC3)c1 | -7 | 11 | 100 | 102
O=C(CSc1ncccn1)NC1CC1 | nt | -9 | 102 | 103
Cc1cc(OCc2ccc(Br)cc2)nc(-c2ccccc2O)n1 | -19 | nt | 104 | 100
O=C(/C=C/c1ccco1)NCCCN1CCN(CCCNC(=O)/C=C/c2ccco2)CC1 | -12 | 19 | 101 | 101
O=C(CSc1nnc2ccccn12)Nc1ccc(S(=O)(=O)N2CCCCC2)cc1 | 3 | -6 | 106 | 109
Cc1cc(C)c2c(n1)sc1c(=O)n(C)cnc12 | -2 | 16 | 104 | 102
CCC(CC)C(=O)Nc1ccccc1Cl | -9 | -23 | 102 | 104

Of the compounds above, 13 have a Cl atom:
SMILES | Mtb MenB inh | Mtb MbtI inh | PV pol inh | PV pol inh intensity
N#CCCn1cc(/C=C/C(=O)N2CCN(c3ncc(C(F)(F)F)cc3Cl)CC2)c2ccccc21 | -18 | -4 | 100 | 105
CCC(Sc1nncn2c1cc1occc12)C(=O)Nc1ccc(OC)c(Cl)c1 (configuration not stated) | -10 | 14 | 105 | 106
C#CCn1c(O)c(N=NC(=O)c2cc(Cl)ccc2O)c2ccccc21 | -29 | -1 | 104 | 98
Cc1cnc(NC(=O)COc2ccccc2Cl)s1 | -39 | 0 | 103 | 98
CNS(=O)(=O)c1cccc(C(=O)OCC(=O)Nc2ncc(Cl)cc2Cl)c1 | 5 | -12 | 101 | 110
O=c1oc2cc(Cl)c(O)c(Cl)c2s1 | -53 | 99* | 102 | 101
CCOC(Cn1c(SCc2c(F)cccc2Cl)nc2ccccc2c1=O)OCC | -16 | -6 | 101 | 96
NC(=O)C1CCCN1c1cnn(Cc2ccccc2)c(=O)c1Cl (configuration not stated) | 15 | 20 | 106 | 101
CC(=O)N=C1c2ccccc2CN1c1cc(Cl)cc(Cl)c1 | nt | -7 | 99 | 99
O=C(CNC(=O)c1ccc2c(c1)SC1=NS(=O)(=O)CCN12)Nc1cc(Cl)ccc1Cl | -5 | 4 | 101 | 107
O=C1CCCN1CCCNc1ccc(Cl)nn1 | -16 | 7 | 100 | 100
CC(NC(=O)Cc1c(F)cccc1Cl)C1CCCO1 (configuration not stated) | -12 | -13 | 101 | 103
CCC(CC)C(=O)Nc1ccccc1Cl | -9 | -23 | 102 | 104

Source: PubChem (ICCB-Longwood Screening Facility, Harvard Medical School)
